Env fusion inh = inhibitors of HIV-1 Env-driven cell-cell fusion, primary screen, HeLa-JRFL effector, CEM21 target cells, luciferase; AID 651610, 2012; inhibition, % at 12.3 µM; hit rate 1.1% among 360,000;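 active means mean replicate inhibition score of at least 50 and every replicate individually at or above 50; inconclusive means only one of the two criteria met; inactive means mean below 50 and not all replicates reaching 50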;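 further: 0% = plate neutral controls and 100% = maraviroc near 300 nM; one replicate is shown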
Yeast UUG start = modulators of yeast start codon fidelity, primary screen, whole organism, S. cerevisiae, single point, plate reader | S. cerevisiae UUG-firefly luciferase reporter, luminescence/redox ratio | activity score, % at 18.7 µM | hit rate 0.13% among 350,000 | AID 602363, 2012;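 active means replicate mean at a twofold rise or more, about +100% in these data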;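 further: firefly luciferase made from a UUG start codon reports start codon fidelity; reporter light over untreated wells divided by growth signal over untreated wells; some hits fall short of that in this replicate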
MT1-MMP act inh = blockers of MT1-MMP proenzyme processing, primary screen, HT1080 RFP-PRO-GFP cells, GFP/RFP fluorescence. GFP/RFP ratio fluorescence, overnight; percent of plate control window, DMSO zero. GFP/RFP ratio change, % at 20 µM. hit rate 0.061% among 360,000. AID 651647, 2012;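 active means GFP/RFP ratio change of at least 30% with cell ATP level not reduced by more than half and red fluorescence within 50% of control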; further: strong numbers were not always called active
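Test system: HT1080 RFP-PRO-GFP cells; Benchmarks: DMSO and RFP-L50D-GFP cell wells; Timing: cells overnight before dosing, compound overnight, 37 °C, 5% CO2; Compound: one 20 µM compound dose with 1% DMSO; Read-out: GFP/RFP fluorescence ratio.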
Rce1 inhib = yeast Rce1p protease inhibitors, primary screen, biochemical, fluorescence, cell-free homogeneous; hit rate 0.27% among 290,000; yeast membranes, quenched prenylated peptide cleavage fluorescence; calls only; CAAX prenyl protease 2 (Saccharomyces cerevisiae (strain ATCC 204508 / S288c)), Q03530;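 active means fall in fluorescence gain of 50% or more versus controls, with final raw signal at or below 3038400; inconclusive means same 50% fall but final raw signal above 3038400; inactive means fall in fluorescence gain under 50%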;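 further: plate controls were neutral control wells for no effect and wells lacking membranes for full effect; tested at 10 µM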
Target sequence (Q03530 whole entry, looked up): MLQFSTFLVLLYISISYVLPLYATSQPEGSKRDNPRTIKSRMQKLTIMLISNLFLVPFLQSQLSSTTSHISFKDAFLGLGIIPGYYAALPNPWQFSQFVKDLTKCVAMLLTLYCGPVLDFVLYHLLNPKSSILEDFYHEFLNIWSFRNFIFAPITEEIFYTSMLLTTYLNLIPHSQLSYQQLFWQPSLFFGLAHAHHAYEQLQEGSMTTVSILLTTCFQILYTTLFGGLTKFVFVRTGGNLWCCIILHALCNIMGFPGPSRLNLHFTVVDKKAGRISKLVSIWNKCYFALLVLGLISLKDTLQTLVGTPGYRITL
eIF4H FP inh = human eIF4H binding inhibitors, primary screen, translation initiation inhibitor project, biochemical, uHTS, fluorescence polarization; hit rate 0.94% among 290,000; inhibition, % at 35 µM; Eukaryotic translation initiation factor 4H (Homo sapiens), Q15056; eIF4H fluorescence polarization binding assay;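 active means 50% or more with normal probe brightness, or confirmed in later tests; inconclusive means above 50% with abnormal brightness, or retests that disagree; inactive means below 50% or failed in later tests; about a fifth of its hits are not listed in these tables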;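 further: calls also rest on retests at 20 µM and on dose response follow-up; 0% = protein and probe with vehicle and 100% = probe without protein; strong numbers were not always called active; many hits fall short of the cut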
CSC inhib = cancer stem cell viability inhibitors, primary screen, luminescence | cancer stem cell-like cells viability | AID 2717, 2010 | hit rate 1.1% among 300,000 | inhibition, % at 7.5 µM;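 active means mean at 75% or more and at least half the replicates too; inconclusive means mean and replicates disagree; tested in HMLE shEcad cells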;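 further: 0% = median of negative and 100% = median of positive control wells; the first replicate is given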
PABP polyA inh = PABP poly(A) RNA binding inhibitors, primary screen, biochemical, fluorescence polarization, uHTS; Polyadenylate-binding protein 1 (Homo sapiens), P11940; inhibition, % at 35 µM; hit rate 1% among 290,000;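 active means 50% or more with normal probe brightness, or confirmed in later tests; inconclusive means above 50% with abnormal brightness, or retests that disagree; inactive means below 50% or failed in later tests; about a fifth of its hits are not listed in these tables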;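 further: calls also rest on retests at 20 µM and on dose response follow-up; controls were probe without protein and protein plus probe with vehicle; some compounds called inactive have numbers as strong as hits; many hits fall short of the cut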
Target sequence (P11940 whole entry, looked up): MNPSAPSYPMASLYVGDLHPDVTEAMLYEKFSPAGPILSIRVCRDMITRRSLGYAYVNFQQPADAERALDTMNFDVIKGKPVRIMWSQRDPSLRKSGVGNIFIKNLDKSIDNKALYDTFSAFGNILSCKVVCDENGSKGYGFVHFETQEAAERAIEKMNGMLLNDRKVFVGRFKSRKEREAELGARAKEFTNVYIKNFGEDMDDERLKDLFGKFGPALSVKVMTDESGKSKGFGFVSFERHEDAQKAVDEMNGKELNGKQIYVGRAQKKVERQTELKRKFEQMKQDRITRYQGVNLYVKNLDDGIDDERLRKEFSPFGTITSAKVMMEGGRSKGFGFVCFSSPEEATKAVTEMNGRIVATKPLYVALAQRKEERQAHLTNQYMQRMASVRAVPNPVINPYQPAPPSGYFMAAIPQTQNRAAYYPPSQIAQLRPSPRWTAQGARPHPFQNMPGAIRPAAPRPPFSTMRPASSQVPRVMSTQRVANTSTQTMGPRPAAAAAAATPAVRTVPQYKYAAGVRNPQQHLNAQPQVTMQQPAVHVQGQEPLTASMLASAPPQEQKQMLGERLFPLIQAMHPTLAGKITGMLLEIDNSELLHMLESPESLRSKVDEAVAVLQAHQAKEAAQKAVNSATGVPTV
MT1-MMP act inh RFP = second read-out of MT1-MMP act inh, no call of its own (marks repeat the call); RFP signal change, %; measured here: RFP expression control read;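 0 = vehicle wells; hits needed this value within 50% of zero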
Active calls of the source: *; i = inactive; u = inconclusive; x = no result given; & = joins results of further samples.

SMILES | Env fusion inh | Yeast UUG start | MT1-MMP act inh | MT1-MMP act inh RFP | Rce1 inhib | eIF4H FP inh | CSC inhib | PABP polyA inh
CC(=O)Nc1ccc(NC(=O)CN(C)S(=O)(=O)c2ccc3c(c2)CCC(=O)N3)cc1 | 2 | -10 | 2 | 5 | i | -3 | -4 | 1
CCc1nnc(NC(=O)CSc2nnc(-c3cccnc3)n2C)s1 | 2 | 3 | 0 | 3 | i | -4 | 4 | 11
CCOc1ccccc1OCCCC(=O)N1CCN(S(=O)(=O)c2ccc(C)cc2)CC1 | u | x | 1 | -1 | i | -14 | -2 | 0
CCn1c(=O)n(CC)c2cc(N3CCCC3)c(NC(=O)c3ccc(C)cc3)cc21 | -2 | -4 | 8 | 3 | i | 2 | 6 | 17
Cc1ccc(NC(=O)CS(=O)CC(=O)NC(C)CCc2ccco2)cc1Cl (configuration not stated) | 8 | 3 | 3 | -6 | i | -5 | -2 | -6
CCOc1ccc(OCCCCn2cnc3ccccc3c2=O)cc1 | 6 | -20 | 3 | -1 | i | -7 | -10 | 4
CC1CN(C(=O)c2ccc(S(=O)(=O)Nc3cccc(C(F)(F)F)c3)cc2)CC(C)O1 (configuration not stated) | -9 | -9 | 2 | -8 | i | x | -3 | x
O=CN1CCc2scc[n+]2-c2ccccc21 | -32 | 9 | -3 | 4 | i | 27 | -14 | 4
COc1ccccc1CCC(=O)N(Cc1ccccc1)c1c(N)n(Cc2ccccc2)c(=O)[nH]c1=O | u | -2 | -3 | -3 | i | -13 | 5 | -9
CC(=Nc1ccccc1)c1sc2ccccc2c1O | x | -13 | -73 | 6 | i | -5 | 11 | 8
CCS(=O)(=O)Nc1cccc(C2=NN(S(=O)(=O)CC)C(c3ccccc3)C2)c1 (configuration not stated) | 15 | -14 | -8 | 0 | i | -4 | x | 3
CCn1c(SCC(=O)Nc2nonc2C)nnc1-c1ccoc1C | 19 | 22 | -4 | -1 | i | -4 | 14 | 15
CCOC(=O)C1CCc2c(ccc3ccccc23)N1CCC#N (configuration not stated) | -17 | 1 | 1 | 1 | x | x | x | x
CCOc1ccccc1OCCCC(=O)OCC(=O)Nc1cccc(Cl)c1 | -13 | -16 | 0 | 4 | i | -15 | x | 0
O=C(O)c1ccccc1C(=O)Nc1nc(-c2ccccc2)cs1 | 1 | 8 | 1 | 0 | i | 6 | -7 | -12
O=C(NC1CCCC1)c1ccc(CS(=O)Cc2ccc(Cl)cc2)o1 (configuration not stated) | 3 | -14 | 3 | 1 | i | -9 | -13 | 8
CC1(C(=O)Nc2ccc3c(c2)OCO3)CCN1C(=O)c1ccco1 (configuration not stated) | 13 | -14 | 0 | 3 | x | x | x | x
CCN(CC)C(=O)CNC(=O)c1nn(-c2ccc(OC)c(Cl)c2)c(=O)c2ccccc12 | -1 | -12 | 4 | 4 | i | 2 | -5 | 0
CCN(CC)S(=O)(=O)c1ccc2oc(SCC(=O)NC3CC3)nc2c1 | -9 | -16 | -3 | 3 | i | -10 | -23 | 7
Nc1nc(N)c(C=Nc2ccc(Br)cc2)c(Nc2ccc(Br)cc2)n1 | 0 | -17 | -2 | -3 | i | -4 | 45 | 6
CC(C)C(NC(=O)c1ccccc1NC(=O)c1ccco1)C(=O)NNC(=O)c1ccncc1 (configuration not stated) | -7 | x | -1 | 5 | i | 0 | -7 | 10
CCCn1c(NC(=O)CCS(=O)(=O)c2ccc(C)cc2)nc2ccccc21 | 8 | -18 | -23 | 1 | i | x | 2 | x
Cc1nn(C2CCS(=O)(=O)C2)c2nc(C3CC3)cc(C(=O)Nc3cccc(C#N)c3)c12 (configuration not stated) | 18 | -11 | -5 | -3 | x | x | x | x
O=C(Cc1ccc(S(=O)(=O)N2CCOCC2)s1)NCCOc1ccccc1 | -21 | -6 | 6 | 0 | i | x | -6 | x
O=C(COC(=O)C1CCN(S(=O)(=O)c2ccc3c(c2)OCCO3)CC1)Nc1ccccc1OC(F)F | -7 | -9 | -1 | 1 | i | -1 | -4 | -2
COc1cc(/C=N/O)ccc1OCc1ccccc1Cl | -83 | -22 | -2 | 1 | i | -5 | 4 | -2
CCC(=O)N1CCN(c2ccc(NC(=O)COc3cccc(C)c3C)cc2)CC1 | 3 | 4 | -2 | -4 | i | -4 | 21 | 0
Cc1nc2nc(C)c(NS(=O)(=O)c3ccc(C(C)(C)C)cc3)c(=O)n2[nH]1 | 0 | -6 | 0 | 3 | x | -13 | -9 | 6
CN1CCCCC1(C)C(=O)NCc1ccc(C(C)(C)C)cc1 (configuration not stated) | -9 | -11 | 1 | 5 | x | x | x | x
CCOc1cc(/C=N/NC(=O)C2CCCC2)ccc1OC(C)C | 5 | 3 | -1 | 0 | i | 11 | 4 | 11

2 records picked at random from the list so far:
SMILES | Env fusion inh | Yeast UUG start | MT1-MMP act inh | MT1-MMP act inh RFP | Rce1 inhib | eIF4H FP inh | CSC inhib | PABP polyA inh
COc1cc(/C=N/O)ccc1OCc1ccccc1Cl | -83 | -22 | -2 | 1 | i | -5 | 4 | -2
CCC(=O)N1CCN(c2ccc(NC(=O)COc3cccc(C)c3C)cc2)CC1 | 3 | 4 | -2 | -4 | i | -4 | 21 | 0

(listing goes on)
SMILES | Env fusion inh | Yeast UUG start | MT1-MMP act inh | MT1-MMP act inh RFP | Rce1 inhib | eIF4H FP inh | CSC inhib | PABP polyA inh
Cc1ccc(C(=O)NC(=S)Nc2ccc3[nH]c(=O)[nH]c3c2)cc1C | -6 | -8 | 1 | -1 | i | 4 | -10 | -15
CC(=O)Nc1cccc(NC(=O)CN2c3cccc4cccc(c34)S2(=O)=O)c1 | -22 | -16 | 3 | -2 | x | x | x | x
C[C@@H](C(=O)Nc1ccc(OC(F)F)c(Cl)c1)N1C(=O)C2CC=CCC2C1=O (some centres not stated) | 0 | -11 | 0 | -2 | x | x | -11 | x
N#CCCN(C(=O)COC(=O)CNS(=O)(=O)c1ccc2ccccc2c1)c1ccccc1 | x | 1 | -3 | -1 | x | x | 2 | x
CCC(C)CCN1CCN=C1N(C)C (configuration not stated) | -12 | -10 | -4 | 4 | x | x | 6 | x
O=C1CSC(=Nc2ccc(F)cc2)N1 | 20 | -5 | -13 | -6 | i | 3 | 4 | 0
CC1(C(=O)NCc2cccc3ccccc23)CCN1C(=O)C1(c2ccccc2)CC1 (configuration not stated) | 6 | 3 | 0 | -3 | x | x | x | x
O=C(CSc1ccc(Br)cc1)Nc1ccccc1Oc1ccccc1 | -29 | x | -3 | -8 | i | -6 | 0 | -12
Cc1ccc(NC(=O)COC(=O)C(NS(=O)(=O)c2ccc(Cl)cc2)C(C)O)c(Br)c1 (configuration not stated) | -22 | x | 7 | 4 | i | 6 | -12 | 0
COc1ccc(CCNC(=O)Cn2cnc3ccccc3c2=O)cc1OC | x | -9 | 2 | 4 | i | -1 | -14 | -7
O=C(CS(=O)c1ccc(Br)cc1)N1CCOCC1 (configuration not stated) | -2 | -17 | 0 | 0 | i | -6 | 1 | -2
CC(C)C(NC(=O)c1ccccc1)c1nnc(SCC(=O)NC2CCCC2)n1C (configuration not stated) | 9 | -6 | 2 | 1 | i | 2 | -20 | -2
O=C(COC(=O)CNS(=O)(=O)c1ccc2ccccc2c1)Nc1ccccc1Sc1ccccc1 | 0 | x | 0 | -1 | i | -10 | -6 | 1
CCc1nn2c(=O)c(S(=O)(=O)Nc3ccccc3)c(C)nc2s1 | 1 | 5 | -4 | -5 | i | 7 | -14 | -6
CC(=O)c1ccc(NC(=O)Nc2ccc3c(c2)N(C)C(=O)CS3)cc1 | 39 | -25 | -12 | -11 | i | 7 | -2 | -10
Cc1ccc(OCC(=O)Nc2ccccc2C(=O)NC2CC2)cc1C | 4 | 4 | -2 | 0 | i | -6 | 7 | -7
CCOC(=O)c1c(NC(=O)c2ccccc2N(C)S(=O)(=O)c2ccccc2)sc2c1CCCC2 | 24 | -10 | -12 | -16 | i | 0 | 69 | 5
CSc1ccc(/C=C(\C(=O)O)c2ccc(S(=O)(=O)N3CCCC3)s2)cc1 | -5 | -10 | -3 | 0 | x | x | -9 | x
CCOCCc1nn2c(=O)cc(CSCC(=O)Nc3ccc(OC)cc3)nc2s1 | -7 | 3 | -2 | 2 | i | x | 2 | x
O=[N+]([O-])c1ccc(N2CCN(CCO)CC2)cc1Sc1nc2ccccc2[nH]1 | x | x | 0 | 2 | i | -5 | 17 | -9
CC1(C)SC2c3ccccc3C(=O)N2[C@@H]1C(=O)NCCCN1CCOCC1 (some centres not stated) | x | x | 4 | 3 | i | -5 | -21 | -11
Cn1cccc1C(=O)OCC(=O)NC(=O)c1ccc(Cl)cc1 | -299 | -19 | 3 | 4 | x | x | -3 | x
Oc1ccccc1O | 13 | -15 | 4 | -10 | x | x | 24 | x
CN(C)c1cc[n+](CC(=O)Nc2c(Cl)cc(Cl)cc2Cl)cc1 | 18 | x | 15 | -7 | i | 13 | -9 | 10
CC1=NC(Nc2nc(C)c3ccccc3n2)=NC(C)(C)C1 | -58 | -11 | -11 | -2 | i | -9 | 19 | -3
CCOC(=O)N(C)C[C@@H]1OCc2cnnn2CCCC(=O)N([C@H](C)CO)C[C@@H]1C | -13 | -5&-15&7 | 2 | -1 | x | x | x | x
COc1ccc(S(=O)(=O)N2CCOCC2)cc1NC(=O)C1CC(=O)N(c2ccc3c(c2)OCCO3)C1 (configuration not stated) | 1 | -5 | 4 | 7 | x | x | x | x
Cc1ccc(NC(=S)NCCc2c[nH]c3ccccc23)cc1 | x | -35 | 2 | -4 | i | -2 | 7 | -9
Cc1c(OCC(=O)NC2CC(C)(C)NC(C)(C)C2)ccc2c3c(c(=O)oc12)CCC3 | -24 | 3 | 4 | 3 | i | 2 | 8 | 11
O=S(=O)(NC(=NCCc1ccc(Cl)cc1)c1ccccc1Cl)c1cccs1 | 15 | x | -1 | -5 | i | 4 | -4 | -12
Nc1ccccc1SCc1c(Cl)cccc1Cl | -4 | x | -4 | -1 | i | -3 | x | 5

Rewritten with each value named: part of the list above.
CC(C)C(NC(=O)c1ccccc1NC(=O)c1ccco1)C(=O)NNC(=O)c1ccncc1 (configuration not stated)
  Env fusion inh: -7
  Yeast UUG start: x
  MT1-MMP act inh: -1
  MT1-MMP act inh RFP: 5
  Rce1 inhib: i
  eIF4H FP inh: 0
  CSC inhib: -7
  PABP polyA inh: 10

CCCn1c(NC(=O)CCS(=O)(=O)c2ccc(C)cc2)nc2ccccc21
  Env fusion inh: 8
  Yeast UUG start: -18
  MT1-MMP act inh: -23
  MT1-MMP act inh RFP: 1
  Rce1 inhib: i
  eIF4H FP inh: x
  CSC inhib: 2
  PABP polyA inh: x

Cc1nn(C2CCS(=O)(=O)C2)c2nc(C3CC3)cc(C(=O)Nc3cccc(C#N)c3)c12 (configuration not stated)
  Env fusion inh: 18
  Yeast UUG start: -11
  MT1-MMP act inh: -5
  MT1-MMP act inh RFP: -3
  Rce1 inhib: x
  eIF4H FP inh: x
  CSC inhib: x
  PABP polyA inh: x

O=C(Cc1ccc(S(=O)(=O)N2CCOCC2)s1)NCCOc1ccccc1
  Env fusion inh: -21
  Yeast UUG start: -6
  MT1-MMP act inh: 6
  MT1-MMP act inh RFP: 0
  Rce1 inhib: i
  eIF4H FP inh: x
  CSC inhib: -6
  PABP polyA inh: x

Assay outcomes from PubChem BioAssay.

Rows are unselected; overall some 3% were active at least once.
